From PubChem
D2 PAM – human D2 receptor positive allosteric modulation; P14416; 360,000 tested, 0.23% active; DiscoveRx D2 beta-arrestin cells, luminescence, 90 min; 100% = 57 uM dopamine signal; potentiation, % (test concentration not listed); AID 624464; active = potentiation of 50% or more; inconclusive = 30% to 50%; inactive = 30% or less;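 note: compound concentration not given in the record; tested on top of an EC20 dose of dopamine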
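D2 cells co-treated with compound plus 50 nM dopamine (EC20) for 90 min at 37 deg C to detect potentiation. Beta-arrestin recruitment was read as enzyme-fragment luminescence after 1 h at ambient temperature. Full response was set by 57 uM dopamine.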
D2 ag – activates the human D2 dopamine receptor | P14416 | DiscoveRx PathHunter D2 beta-arrestin, luminescence, 90 min; 100% = 57 uM dopamine signal | activation, % (concentration not given with the values) | 360,000 tested, 0.084% active | AID 624465; in the data active = activation above about 40%; inconclusive = about 15% to 40%; inactive = below about 15%; note: compound concentration not given in the record; the text of the record calls up to 30% inactive
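DiscoveRx PathHunter D2 beta-arrestin cells (2,100/well) attached overnight, then compound-stimulated 90 min at 37 C in HBSS/10 mM HEPES/0.1% Tween-20 buffer; beta-galactosidase complementation read by luminescence after 1 h at ambient temperature. Dopamine 57 uM final (EC100) as control.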
Six1-Eya2 inh – inhibitors of human Six1/Eya2 interaction; Q15475+O00167; AlphaScreen GST-Six1/His-Eya2 binding, biochemical; active compounds read low; control for the full effect not named in the record; activity change, % (no concentration beside the values); 360,000 tested, 0.56% active; AID 651725; in the data active = activity change below about -65%; inconclusive = about -30% to -65%; inactive = above about -30%; note: % is set by controls: 0 for no effect and ±100 for the full control effect
Target sequence (O00167 whole entry, looked up): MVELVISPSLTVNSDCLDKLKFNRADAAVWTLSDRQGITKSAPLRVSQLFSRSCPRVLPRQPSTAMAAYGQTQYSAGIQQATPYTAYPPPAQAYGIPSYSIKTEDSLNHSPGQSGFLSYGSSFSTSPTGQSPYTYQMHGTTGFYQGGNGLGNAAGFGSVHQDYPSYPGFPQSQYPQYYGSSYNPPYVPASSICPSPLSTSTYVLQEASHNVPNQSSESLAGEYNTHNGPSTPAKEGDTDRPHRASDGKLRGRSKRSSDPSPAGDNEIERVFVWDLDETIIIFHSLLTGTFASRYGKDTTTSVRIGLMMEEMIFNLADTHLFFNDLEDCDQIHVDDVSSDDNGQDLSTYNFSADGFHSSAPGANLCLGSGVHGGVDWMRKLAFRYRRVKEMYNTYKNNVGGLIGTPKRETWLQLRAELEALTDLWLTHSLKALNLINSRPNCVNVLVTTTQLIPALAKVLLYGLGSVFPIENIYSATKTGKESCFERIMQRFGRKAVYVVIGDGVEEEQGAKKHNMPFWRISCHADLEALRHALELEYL
Target sequence (Q15475 whole entry, looked up): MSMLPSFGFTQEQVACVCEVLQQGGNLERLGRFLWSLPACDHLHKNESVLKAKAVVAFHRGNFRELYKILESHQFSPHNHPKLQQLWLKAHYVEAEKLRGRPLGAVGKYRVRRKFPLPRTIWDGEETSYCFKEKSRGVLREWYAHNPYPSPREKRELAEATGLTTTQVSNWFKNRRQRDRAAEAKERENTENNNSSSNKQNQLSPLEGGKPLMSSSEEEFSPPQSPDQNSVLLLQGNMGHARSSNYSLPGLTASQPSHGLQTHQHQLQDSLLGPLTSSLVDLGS
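Six1/Eya2 binding was read as AlphaScreen signal after compounds were pinned into GST-Six1 plus His-tagged Eya2 (5X stock 250/500 nM) in pH 8.0 Tris/NaCl/TCEP buffer, beads added, then incubated 1 h, 37 C, dark.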
TRPV1 potentiator – enhances activation of the human vanilloid receptor TRPV1; potentiation, % at 8.33 µM; Q8NER1; 320,000 tested, 0.02% active; TRPV1-expressing cells, Fluo-8 calcium influx, capsaicin EC20 potentiation; host cell line not named in the record; control for the full effect not named in the record; active means potentiation above 80%; inconclusive means 30% to 80%; inactive means below 30%; note: 0% is about no effect
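TRPV1-expressing cells were cultured overnight at 35.5C and loaded with Fluo-8 calcium dye for 40 to 90 min at room temperature. After a 10 s baseline, compound was added and calcium influx was read kinetically for 3 min (ex 480/em 520 nm).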
PINK1 modulator – PINK1 expression modulation. 410,000 tested, 0.2% active. AID 624263. PINK1 immunofluorescence, high-content cytometry, 24 h. Potency, µM (top dose mostly 76.6 µM), for inactives: at the highest dose activation (PINK1 increase), hits mostly activators; active = well fitted activation curve with a large enough effect; inconclusive = small, poorly fitted or top-dose-only effect; inactive = flat fitted curve, though single readings scatter; cell line not stated here;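 note: potency is the fitted concentration of half-maximal effect; % of control where 0% means no effect; nearly all actives have a fitted effect of over 65% in size; a mitochondrial uncoupler was the plate control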
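Stable cell line, 250 cells/well, 12 h attachment; compounds pinned at 5 concentrations, 24 h; CCCP control. Fixed with nuclear dye, primary antibodies 12 h at 10 degrees C, secondary plus cell stain; laser-scanning cytometer read.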
Sfp inh – inhibitors of Bacillus subtilis Sfp phosphopantetheinyl transferase; Q9F4F7; Biochemical Sfp PPTase activity, qHTS; Potency, µM, for the others: max response, negative = inhibition, actives largely listed as inhibitors; 310,000 tested, 3.5% active; active = well fitted inhibition curve with a large enough effect; inconclusive = small, poorly fitted or top-dose-only effect, or another doubt; inactive = no such curve, though single readings can be large or run the other way;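 note: the enzyme is Sfp with the accession as filed and its product quenches rhodamine fluorescence; potency is the fitted concentration of half-maximal effect; 0% = enzyme reaction without inhibitor and -100% = no enzyme wells; top concentration of the series not given in the record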
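With Hepes-Na pH 7.6 buffer containing 10 mM MgCl2, Sfp (15 nM) modified BHQ-2-YbbR (12.5 uM) using rhodamine-CoA (5 uM). Two reads 30 minutes apart at 525/598 nm yielded each well's rate.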
CtBP-E1A blk – CtBP/E1A binding inhibition; AlphaScreen GST-E1A/His-CtBP binding, 1536-well; active compounds read low; control for the full effect not named in the record; AID 651724; activity change, % (test concentration not listed); 340,000 tested, 0.49% active; in the data active means activity change below about -65%; inconclusive means about -30% to -65%; inactive means above about -30%; note: % is set by controls: 0 for no effect and ±100 for the full control effect
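Protein mix (5X: 125 nM each GST-E1A, His-CtBP) was incubated with pinned compound 2 h at 37 deg C in dark, in 50 mM Tris pH 8.0 buffer with 300 mM NaCl. Glutathione donor and nickel acceptor beads followed; AlphaScreen signal read after 1 h.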
An asterisk follows results filed as active; ? = inconclusive; . = no result given; & = joins results of further samples; [ ] = remark or other dose.

SMILES	CtBP-E1A blk	PINK1 modulator	Six1-Eya2 inh	TRPV1 potentiator	D2 PAM	Sfp inh	D2 ag
COc1ccc(CNC(=O)CCc2nc(-c3ccccc3F)no2)c(OC)c1	-4	-0.2%	-15	18	-2	8%	-1.0
COC(=O)Cn1c(=O)c2c(nc3n2CC(C)CN3CCc2ccccc2)n(C)c1=O (centres undefined)	7	-3.4%	5	-3	-1	3%	4.5
Cc1cccc(C)c1-n1nnnc1C1(C)CCC(=O)N1C1CCN(Cc2ccccc2)CC1 (centres undefined)	2	2.7%	7	.	.	.	.
COc1ccccc1NC(=O)c1cc2c(CO)cnc(C)c2oc1=Nc1ccc(OC)c(OC)c1	-6	-0.2%	3	?	-4	-7%	-1.7
CCN(c1ccccc1C)S(=O)(=O)c1cc2c3c(c1)CCC(=O)N3CCC2	1	0.1%	7	4	-4	9%	-4.1
COCCNC(=S)N1CCN(C(c2ccccc2)c2ccccc2)CC1	-2	-0.7%	0	-10	-9	10%	4.1
O=C(/C=C/c1ccco1)Nc1nc(-c2ccccn2)cs1	.	2.0%	-74*	-1	13	-79%	-1.5
Cc1cc(N/N=C/c2ccc(O)cc2O)nc(-c2ccccc2O)n1	?	0.5%	?	-4	?	6%	41*
Cn1c(SCC(=O)Nc2cccc(S(=O)(=O)NC3=NCCCCC3)c2)nnc1-c1ccncc1	.	-2.5%	7	7	-11	10%	-0.4
CCCc1c(C(=O)Nc2ccc(F)cc2C)cnn1-c1ccccc1	3	2.8%	10	.	-1	-21%	-3.5
CC(Sc1nc2ccccc2c(=O)n1CCc1ccc(S(N)(=O)=O)cc1)C(=O)NC(N)=O (centres undefined)	3	0.4%	-5	3	1	11%	8.6
COc1ccc(NC(=O)CCN2C(=O)c3ccc([N+](=O)[O-])cc3C2=O)c(OC)c1	3	4.2%	0	-1	56*	-11%	?
Cc1cccc(-n2c(=O)[nH]c3c(C(N)=O)nc(CC(C)C)nc32)c1	-15	-1.9%	5	?	-13	9%	-3.5
c1coc(-c2nnc3sc(-c4cccs4)nn23)c1	?	-3.2%	?	-1	-9	-16%	-3.4
O=C(NCc1cccc(C(F)(F)F)c1)c1c[nH]c(=O)s1	-11	0.2%	11	.	-8	.	-4.6
CN(c1ccccc1)S(=O)(=O)c1cccc(NC(=O)CSc2nnc(N)s2)c1	-18	-1.6%	-11	1	-11	8%	-0.3
CCOCCCN(C(=O)c1ccco1)C(C(=O)NC1CCCC1)c1ccc(OC)cc1 (centres undefined)	23	-0.7%	1	12	-3	18%	-1.0
COc1ccc(CN(CC(O)COCc2ccccc2)S(=O)(=O)c2ccccc2Br)cc1OC (centres undefined)	-11	4.3%	-25	.	-6	.	0.3
CC(C)CN(C(=O)COC(=O)CCc1nc2ccccc2s1)c1c(N)n(Cc2ccccc2)c(=O)[nH]c1=O	9	-0.5%	-3	-3	-15	.	-1.2
O=C(CSc1nc2ccccc2o1)Nc1ccccc1N1CCOCC1	11	-0.7%	-7	-8	1	-3%	1.2
COc1cccc(-c2nc(CS(=O)(=O)CC(=O)Nc3ccccc3Cl)c(C)o2)c1	2	1.7%	0	-8	-1	12%	-1.3
COc1ccccc1N1CCN(C(=O)Cn2ncc3c([nH]c4ccccc43)c2=O)CC1	.	15%&1.1%	3	0	5	24%	2.9
Cn1c2c(c(=O)n(C)c1=O)CN(Cc1ccco1)CN2	-1	1.3%	-2	2	-14	5%	-0.5
NC(=O)CC[C@H](NC(=O)c1ccc(F)cc1)C(=O)OCC(=O)Nc1c(F)c(F)c(F)c(F)c1F	-11	4.3%	4	-9	14	17%	-1.8
CN(C)C(CNC(=O)c1cccc(S(=O)(=O)N2CCN(c3ccc(F)cc3)CC2)c1)c1ccccc1 (centres undefined)	-27	1.4%	-10	.	-7	.	-0.5
CCOCCCNC(=O)CCc1ccc(S(=O)(=O)Nc2ccc(C)cc2)cc1	4	-1.3%	2	6	-1	13%	0.5
O=C(NCc1ccccc1F)C1CCCN1C(=O)NCc1ccccc1 (centres undefined)	7	2.3%	7	0	2	18%	-0.6
CC1=NNC(=O)C1C(c1ccccc1)C(C#N)C#N (centres undefined)	-1	5.5%[38.3 µM]	-1	5	-6	-7%	-2.1
COc1cccc(/C=N/Nc2ccc(C(=O)O)cc2)c1O	.	1.7%	-7	6	79*	-18%	-0.8
CCCSCCCNC(=O)Cn1nc(CC)n2c(cc3c(OC)cccc32)c1=O	.	2.2%	8	-4	-7	-1%	-1.6
CCOC(=O)N1CCC(NC(=O)CS(=O)Cc2nc(-c3ccc(C)cc3)oc2C)CC1 (centres undefined)	0	0.6%	-1	22	-6	14%	-1.8
CCOC(=O)c1c(C)[nH]c(C(=O)COC(=O)c2c(CC)noc2C)c1C	2	-0.4%	-2	-4	-4	.	-0.5
O=C1NC(=S)SC1=C1CCCCCC1	-4	-1.0%	7	8	-18	35µM*	-5.0
COc1ccc(/C=N/Nc2ccc([N+](=O)[O-])cc2)cc1Cn1cc([N+](=O)[O-])cn1	-2	1.9%	2	-28	?	-22%	0.4
N#CCSc1ccccc1NC(=O)CN1C(=O)C(=O)N(Cc2ccccc2)C1=O	1	-0.1%	-3	.	-17	.	-1.8
CCn1c(SCC(=O)Nc2cc(C)c(Cl)cc2OC)nnc1-c1ccco1	7	-1.9%[38.3 µM]	-14	10	-2	2%	-0.2
O=C(NC1CCCC1)C(c1ccc(F)cc1)N(C(=O)c1csnn1)C1CCCC1 (centres undefined)	-14	1.1%	6	6	3	7%	9.1
Clc1ccccc1-c1nc(-c2cccnc2)no1	13	-0.9%	11	-5	6	8%	-0.2
N#Cc1ccccc1COC(=O)CCN=C1NS(=O)(=O)c2ccccc21	-10	-2.6%	-4	.	-5	.	-3.5
CCn1cc(C(=O)N(C)Cc2ccc(OC(F)F)cc2)c(=O)c2ccc(C)nc21	.	2.0%	1	9	0	4%	-0.1

Record cards, from the list above.
Shown for CCOCCCNC(=O)CCc1ccc(S(=O)(=O)Nc2ccc(C)cc2)cc1 = CtBP-E1A blk: 4; PINK1 modulator: -1.3%; Six1-Eya2 inh: 2; TRPV1 potentiator: 6; D2 PAM: -1; Sfp inh: 13%; D2 ag: 0.5
Shown for CCn1cc(C(=O)N(C)Cc2ccc(OC(F)F)cc2)c(=O)c2ccc(C)nc21 = CtBP-E1A blk: .; PINK1 modulator: 2.0%; Six1-Eya2 inh: 1; TRPV1 potentiator: 9; D2 PAM: 0; Sfp inh: 4%; D2 ag: -0.1

More results follow:
SMILES	CtBP-E1A blk	PINK1 modulator	Six1-Eya2 inh	TRPV1 potentiator	D2 PAM	Sfp inh	D2 ag
COc1ccc(NC(=O)CSc2nc3ccncc3[nH]2)c(OC)c1	.	0.3%&0.6%	-2	9	-7	17%	5.9
O=C(Nc1nc2ccccc2[nH]1)C1CCCO1 (centres undefined)	6	-1.9%[38.3 µM]	0	-14	1	14%	0.3
Cc1cc(C(=O)Cn2nnc(-c3ccc(Cl)cc3)n2)c(C)n1CC1CCCO1 (centres undefined)	14	.	-9	-7	2	4%	2.5
Cc1ccc(C(=O)Nc2nc(-c3ccco3)c(-c3ccco3)s2)o1	-11	10%	-29	-15	-13	.	-4.5
Cc1cnc(C(=O)Nc2ccc(S(=O)(=O)NCC(C)C)cc2)cn1	.	6.9%	20	-3	-9	14%	-1.5
CCOc1ccccc1N1CCN(CC(=O)c2c(N)n(C)c(=O)n(C)c2=O)CC1	0	-1.7%	0	16	-14	-16%	-6.8
CCCCCCCCCCCCCCCCn1cc[n+](CC(C)=O)c1	7	-2.1%	10	-6	-7	35µM*	2.5
Cc1cccc(C)c1N1CCN(c2nc(N(C)C)oc(=O)c2C#N)CC1	1	.	4	0	-1	14%	-0.5
CCOC(=O)c1c(NC(=O)COC(=O)c2ccc(Cl)nc2)sc(C(=O)N(C)C)c1C	-8	-0.7%	1	3	-6	.	-4.0
CCCCOP(=O)(c1ccc(N(C)C)cc1)C(O)c1cccnc1 (centres undefined)	2	.	-2	25	-14	16%	-2.0
Cc1ccc(S(=O)(=O)n2nc(C)c(S(=O)(=O)N3CCOCC3)c2C)cc1	12	1.6%	6	-1	1	10%	0.0
Cc1cc(N2CCCC2)nc2ccccc12	.	-1.9%	9	17	-15	7%	-6.1
CCN(CC)C(=O)C1=C(C)N(Cc2ccc(OC)cc2)C(=O)C(CC(=O)NC2CCCCC2)C1 (centres undefined)	1	1.8%	5	.	-1	.	-10
COc1ccc(C2C(C#N)=C(N)Oc3n[nH]c(C)c32)cc1CSc1ccccn1 (centres undefined)	-3	0.2%	-5	1	-2	-6%	-2.6
COCCn1nnnc1C(c1ccccc1OC)N1CCN(c2ccccc2F)CC1 (centres undefined)	8	-0.9%	10	-8	4	15%	0.1
O=C1NCCSC1c1ccccc1 (centres undefined)	2	0.0%	8	.	-5	.	0.8
Cc1cccc(C(C)C)c1NC(=O)c1ccc(OCC2CCCO2)cc1 (centres undefined)	-5	1.7%	5	.	26	.	1.6
Cc1ccc(O)c(NC(=O)c2cccc(S(=O)(=O)N3CCCCC3)c2)c1	-24	-2.5%	-12	-11	2	19%	-0.2
CC(=O)N1N=C(c2ccc(C)cc2)OC1c1ccc(C(C)C)cc1 (centres undefined)	7	-4.4%	4	-15	-9	-26%	3.8
C/C(=N/NC(=O)CNC(=O)c1cccs1)c1ccco1	1	-0.1%	-18	6	-7	14%	-1.9
O=c1[nH]c2ccc(S(=O)(=O)N3CCCC3)cc2[nH]1	1	0.3%	0	6	-6	0%	-2.9
CCCCNC(=O)CCn1c(=S)[nH]c2cc3c(cc2c1=O)OCO3	3	3.8%	0	.	-5	8%	0.5
CCC1CCCCN1C1Sc2ccc(C(=O)OC)cc2NC1=O (centres undefined)	6	5.5%[38.3 µM]	-1	-1	1	12%	-0.7
COc1ccc(C(=O)OCC(=O)N(C)C2CCS(=O)(=O)C2)cc1S(=O)(=O)N1CCCc2ccccc21 (centres undefined)	-8	-0.4%	-5	-1	-4	18%	1.4
O=C1COc2ccc(C(=O)CSc3nnc(Cc4cccs4)n3-c3ccccc3)cc2N1	-28	0.0%	-22	9	0	-21%	0.0
FC(F)(F)c1cc(Cl)c2nc(-c3ccccc3)cn2c1	13	1.4%	38	.	1	-1%	-1.9
